# Source: PubChem BioAssay (Broad Institute)
# Vaccinia stage = blocks a specific stage of Vaccinia orthopoxvirus infection, primary screen, cell-based, single point. Vaccinia-infected cells, mCherry/Venus stage reporter fluorescence; hits give low values; some inactives read as strong as hits. activity change (mCherry), % (concentration not given with the values). 89,000 tested, 0.01% active. AID 1053133, 2014;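 active = mCherry past -33% and 40 or more points under the early reporter, replicates agreeing; inconclusive = past -33% without that gap or agreement; tested in A549 cells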;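 also: scaled between vehicle wells and reference inhibitor wells; 23 nL library stock went into each well; one replicate is shown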
# Vaccinia stage Venus = second read-out of Vaccinia stage, no call of its own (marks repeat the call); activity change (Venus), %; measured here: Venus reporter, other viral stage;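 negative = less Venus signal; first of two replicates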
# Active calls of the source: *; ? = inconclusive; . = not tested or not shown; & = joins results of further samples. These rows are one share of the data; rates above refer to the full screens.
compound | Vaccinia stage | Vaccinia stage Venus
COc1ccc(C#Cc2ccc([C@@H]3[C@@H](CO)N4C(=O)CN(C(=O)c5cccnc5)C[C@@H]34)cc2)cc1 | -31.0 | -20.7
C[C@H](CO)N1C[C@H](C)[C@@H](CN(C)C(=O)Nc2cccc(Oc3ccccn3)c2)OCc2cn(nn2)CCCC1=O | 7.9 | 6.1
C[C@H]1CN([C@@H](C)CO)C(=O)c2cc(NC(=O)CCC(F)(F)F)ccc2O[C@@H]1CN(C)Cc1ccc(-c2ccccc2)cc1 | -20.9 | -14.1
C[C@H]1CN([C@@H](C)CO)C(=O)c2cc(NC(=O)Nc3ccccc3)ccc2O[C@H]1CN(C)Cc1ccc(C(=O)O)cc1 | 17.2 | 6.2
C/C=C/c1ccc([C@@H]2[C@@H](CO)N(C(=O)C3CCOCC3)C23CN(C(=O)NC(C)C)C3)cc1 | -4.9 | 3.4
O=C1CSC(c2ccccc2)N1c1ccc(-c2ccccc2)cc1 (stereo unspecified) | 8.7 | 3.9
Cc1noc(C)c1S(=O)(=O)Nc1ccc2c(c1)C(=O)N([C@H](C)CO)C[C@H](C)[C@H](CN(C)S(=O)(=O)c1ccccc1)OCCCC[C@H](C)O2 | ? | .
CC(C)CC#Cc1ccc2c(c1)O[C@H](CN(C)Cc1ccccn1)[C@@H](C)CN([C@H](C)CO)S2(=O)=O | -12.6 | -16.3
CCNC(=O)c1cc2c(c(-c3cccc(-c4cccnc4)c3)n1)[C@H](CCO)N(S(C)(=O)=O)C2 | -26.7 | -26.1
CC(C)NC(=O)Nc1ccc2c(c1)CC(=O)N([C@@H](C)CO)C[C@H](C)[C@@H](CN(C)C(=O)Nc1ccccc1)O2 | 9.2 | 8.5
CCC(=O)Nc1ccc2c(c1)OC[C@H](C)N(Cc1cccc(F)c1)C[C@@H](C)[C@@H](OC)CN(C)C2=O | -17.5 | -8.6
CO[C@@H]1CN(C)C(=O)c2ccc(NC(=O)c3cnccn3)cc2OC[C@@H](C)N(CCc2ccccc2)C[C@H]1C | -7.5 | 22.0
CCC(=O)NC[C@@H]1[C@@H](c2ccc(-c3ccccc3)cc2)[C@H](CO)N1C(=O)C1CC1 | -2.0 | 4.4
C[C@H]1CN([C@@H](C)CO)C(=O)Cc2cc(NS(=O)(=O)c3ccc(Cl)cc3)ccc2O[C@H]1CN(C)S(=O)(=O)c1cn(C)cn1 | 4.9 | 4.0
C[C@H](CO)N1C[C@H](C)[C@H](CN(C)Cc2ccc(F)cc2)Oc2cc(C#CC(C)(C)O)ccc2S1(=O)=O | -10.2 | -19.2
CCS(=O)(=O)N1[C@@H](CO)[C@H](c2ccccc2)C12CN(C(=O)C1CC1)C2 | 9.7 | 1.2
Cc1ccccc1S(=O)(=O)NCC[C@@H]1CC[C@@H](NS(=O)(=O)c2ccccc2C)[C@H](CO)O1 | -5.8 | -1.4
O=S(=O)(c1ccccc1)N1CCCCN2[C@H](C1)[C@@H](c1ccc(-c3ccccc3)cc1)[C@@H]2CO | 15.5 | 8.1
C[C@@H]1CCCCO[C@@H](CN(C)C)[C@H](C)CN([C@@H](C)CO)C(=O)c2cc(NS(=O)(=O)c3ccc(Cl)cc3)ccc2O1 | 14.0 | 4.4
CC(C)CC#Cc1ccc2c(c1)O[C@H](CN(C)Cc1cncnc1)[C@@H](C)CN([C@H](C)CO)S2(=O)=O | ? | .
CCC(=O)N1CC2(CCN(Cc3nccs3)CC2)c2c(n(C)c3cc(OC)ccc23)[C@@H]1CO | -22.1 | -21.8
CCCC#Cc1ccc([C@H]2[C@@H](C#N)N(S(C)(=O)=O)[C@@H]2CO)cc1 | 6.4 | 2.1
O=C(c1ccccc1F)N1C[C@H]2[C@@H](c3ccccc31)[C@@H](CO)N2C(=O)c1cccnc1 | -16.8 | -8.7
C[C@@H]1CN([C@H](C)CO)C(=O)c2cccc(NC(=O)c3cnccn3)c2O[C@@H]1CN(C)S(=O)(=O)c1ccc(F)cc1 | 7.0 | 0.2
CN1CCN(C(=O)[C@H]2[C@H](CO)[C@H]3Cn4c(cccc4=O)[C@H]3N2Cc2cc(F)ccc2F)CC1 | 6.5 | 3.9
COCC(=O)Nc1ccc2c(c1)C(=O)N(C)C[C@@H](OC)[C@H](C)CN(Cc1ccccc1F)[C@H](C)CO2 | -11.0 | -2.9
O=C(C[C@H]1C=C[C@@H](NC(=O)CCN2CCCCC2)[C@H](CO)O1)NCc1ccc(Cl)c(Cl)c1 | -17.8 | -3.8
C[C@@H]1CN([C@@H](C)CO)C(=O)Cc2cc(NC(=O)Cc3ccccc3)ccc2O[C@@H]1CN(C)C(=O)Nc1ccc(F)cc1 | 18.8 | 8.4
C[C@@H]1CN([C@@H](C)CO)C(=O)Cc2cc(NC(=O)Cc3cn(C)c4ccccc34)ccc2O[C@@H]1CN(C)C | 9.1 | 11.8
C[C@@H]1CN([C@H](C)CO)S(=O)(=O)c2ccc(C#CC3CC3)cc2O[C@H]1CN(C)Cc1cccc(F)c1 | -20.3 | -17.6
CO[C@@H]1CN(C)C(=O)c2ccc(NC(=O)C3CC3)cc2OC[C@@H](C)N(C(=O)CN(C)C)C[C@H]1C | 8.3 | 7.4
O=C(Nc1ccccc1F)N[C@@H]1CC[C@@H](CC(=O)N2CCCCC2)O[C@@H]1CO | 0.9 | -1.2
CN(C[C@H]1N[C@@H](CO)[C@H]1c1ccc(-c2cccc(F)c2)cc1)C(=O)C1CCC1 | -16.5 | -10.5
C[C@@H]1CN([C@H](C)CO)C(=O)Cc2cc(NS(C)(=O)=O)ccc2O[C@H]1CN(C)C(=O)Nc1ccccc1 | 22.9 | 11.2
C[C@H]1CN([C@@H](C)CO)C(=O)Cc2cc(NC(=O)NC3CCCCC3)ccc2O[C@H]1CN(C)C(=O)Nc1cccc2ccccc12 | 21.3 | 23.1
CC(C)NC(=O)Nc1ccc2c(c1)C(=O)N(C)[C@@H]1CC[C@@H](CC(=O)Nc3ccccc3)O[C@@H]1CO2 | 8.6 | 10.9
O=C(C[C@@H]1C[C@@H]2c3cc(NC(=O)c4cccnc4)ccc3O[C@@H]2[C@H](CO)O1)NCc1ccc(Oc2ccccc2)cc1 | 6.0 | 10.4
Cc1ccc(S(=O)(=O)N(C)C[C@@H]2OCCCC[C@H](C)Oc3ccc(NC(=O)Nc4ccccc4)cc3C(=O)N([C@@H](C)CO)C[C@@H]2C)cc1 | -25.2 | -12.8
COCC#Cc1ccc([C@H]2[C@@H](CO)N3C(=O)CN(C(=O)c4ccncc4)C[C@@H]23)cc1 | 22.5 | 18.0
O=C(C[C@H]1CC[C@H](NS(=O)(=O)c2ccccc2F)[C@H](CO)O1)NCCCN1CCOCC1 | -1.6 | 0.4
C[C@H]1CN([C@@H](C)CO)C(=O)c2cc(/C=C/c3ccccc3)cnc2O[C@H]1CN(C)C(=O)c1cccc(F)c1 | ? | .
C[C@H](CO)N1C[C@H](C)[C@@H](CN(C)C(=O)Nc2ccc(F)cc2)Oc2ccc(NC(=O)NC3CCCCC3)cc2CC1=O | 21.5 | 14.1
Cc1ccccc1-c1ccc2c(c1)O[C@H](CN(C)C(=O)c1ccccn1)[C@@H](C)CN([C@@H](C)CO)S2(=O)=O | -8.0 | -6.0
C[C@@H]1CCCCO[C@H](CN(C)S(=O)(=O)c2cn(C)cn2)[C@H](C)CN([C@@H](C)CO)C(=O)c2cc(NS(=O)(=O)c3ccccc3)ccc2O1 | 13.1 | 5.3
O=C(NCC[C@@H]1CC[C@@H](NC(=O)C2CC2)[C@@H](CO)O1)c1ccc(F)cc1 | -2.2 | -0.9
C[C@H]1CN([C@@H](C)CO)C(=O)c2cc(NC(=O)CCC(F)(F)F)ccc2O[C@@H]1CN(C)C(=O)NC1CCCCC1 | 15.7 | 3.3
C[C@H](CO)N1C[C@H](C)[C@@H](CN(C)S(=O)(=O)c2ccc(F)cc2)OCc2cnnn2CCCC1=O | 27.8 | 19.1
CN(C)C(=O)C[C@@H]1CC[C@H]2[C@@H](COC[C@H](O)CN2C(=O)C2CCOCC2)O1 | 1.6 | 3.4
C[C@H]1CN([C@@H](C)CO)C(=O)c2cc(NS(C)(=O)=O)ccc2O[C@H]1CN(C)C(=O)NC1CCCCC1 | 14.6 | 0.7
C[C@H](CO)N1C[C@H](C)[C@@H](CN(C)Cc2cccnc2)Oc2cc(-c3cccnc3)ccc2S1(=O)=O | 7.0 | -12.0
COc1ccc(-c2ccc([C@@H]3[C@@H](CO)N4C(=O)CN(C(=O)c5ccccn5)C[C@H]34)cc2)cc1 | 1.3 | 2.6
C[C@@H]1CN([C@@H](C)CO)C(=O)c2cc(NC(=O)Cn3cnnn3)ccc2O[C@H]1CN(C)Cc1ccc(C(F)(F)F)cc1 | -5.5 | -13.3
C[C@H](CO)N1C[C@H](C)[C@@H](CN(C)C(=O)Cc2ccncc2)Oc2cc(-c3cncnc3)ccc2S1(=O)=O | 14.2 | 9.2
CCCC(=O)Nc1ccc2c(c1)C(=O)N(C)[C@H]1CC[C@@H](CC(=O)NCCN3CCCCC3)O[C@H]1CO2 | 14.8 | 5.0
C[C@@H]1CCCCO[C@H](CN(C)C(=O)Nc2ccc(C(F)(F)F)cc2)[C@H](C)CN([C@@H](C)CO)C(=O)c2cc(NC(=O)Nc3cccc4ccccc34)ccc2O1 | 7.5 | -1.3
O=C(C[C@@H]1CC[C@@H](NC(=O)NC2CCCCC2)[C@H](CO)O1)NCc1ccc(Cl)cc1 | -1.6 | 3.3
C[C@H]1CCCCO[C@@H](CN(C)C(=O)Nc2ccc(F)cc2)[C@@H](C)CN([C@@H](C)CO)C(=O)c2cc(NC(=O)Cc3ccccc3)ccc2O1 | -32.1 | -20.8
C[C@@H]1CN([C@@H](C)CO)C(=O)c2cc(NC(=O)c3ccccc3)ccc2O[C@@H](C)CCCCO[C@@H]1CN(C)C(=O)Nc1ccccc1 | 11.7 | 11.2
CCNC(=O)[C@@H]1[C@@H](CO)[C@@H]2Cn3c(ccc(C4=CCCC4)c3=O)[C@H]1N2Cc1cccnc1 | 12.4 | 14.0
CO[C@H]1CN(C)C(=O)c2ccc(NC(=O)Cc3ccccc3)cc2OC[C@@H](C)N(C(C)=O)C[C@H]1C | 9.4 | 12.5

# The list goes on; the last 4 above are carried over.
compound | Vaccinia stage | Vaccinia stage Venus
C[C@H]1CCCCO[C@@H](CN(C)C(=O)Nc2ccc(F)cc2)[C@@H](C)CN([C@@H](C)CO)C(=O)c2cc(NC(=O)Cc3ccccc3)ccc2O1 | -32.1 | -20.8
C[C@@H]1CN([C@@H](C)CO)C(=O)c2cc(NC(=O)c3ccccc3)ccc2O[C@@H](C)CCCCO[C@@H]1CN(C)C(=O)Nc1ccccc1 | 11.7 | 11.2
CCNC(=O)[C@@H]1[C@@H](CO)[C@@H]2Cn3c(ccc(C4=CCCC4)c3=O)[C@H]1N2Cc1cccnc1 | 12.4 | 14.0
CO[C@H]1CN(C)C(=O)c2ccc(NC(=O)Cc3ccccc3)cc2OC[C@@H](C)N(C(C)=O)C[C@H]1C | 9.4 | 12.5
CCS(=O)(=O)Nc1ccc2c(c1)C(=O)N(C)[C@@H]1CC[C@H](CC(=O)N3CCOCC3)O[C@@H]1CO2 | -0.7 | -1.0
C[C@@H]1CN([C@@H](C)CO)S(=O)(=O)c2ccc(/C=C/c3ccccc3)cc2O[C@@H]1CN(C)Cc1cccnc1 | ? | .
COCc1cn(CC[C@@H]2CC[C@H](NC(=O)Nc3ccc(C(F)(F)F)cc3)[C@@H](CO)O2)nn1 | 11.1 | 7.1
O=C(C[C@@H]1CC[C@@H]2[C@H](COC[C@H](O)CN2CC2CCCCC2)O1)NCc1ccc(F)cc1 | -25.8 | -17.0
Cc1cccc(-c2ccc([C@@H]3[C@H]4CN(C(=O)Cc5ccccn5)CC(=O)N4[C@H]3CO)cc2)c1 | -6.8 | -5.4
C[C@H](CO)N1C[C@H](C)[C@@H](CN(C)Cc2ccccc2C(=O)O)OCc2cn(nn2)CCCC1=O | 20.9 | 21.9
O=C(C[C@@H]1CC[C@H](NC(=O)Nc2cc(F)ccc2F)[C@H](CO)O1)NCc1ccncn1 | 15.9 | 18.2
C[C@H](NC(=O)C[C@H]1C[C@@H]2c3cc(NC(=O)C4CCOCC4)ccc3O[C@@H]2[C@H](CO)O1)c1ccccc1 | 0.9 | 2.9
N#C[C@H]1N[C@H](CO)[C@@H]1c1ccc(/C=C/c2ccccc2)cc1 | 12.9&12.1 | 5.0&4.9
C[C@H](CO)N1C[C@H](C)[C@@H](CN(C)C(=O)Cc2ccccc2)Oc2cc(C3=CCCCC3)ccc2S1(=O)=O | ? | .
C[C@H](CO)N1C[C@H](C)[C@H](CN(C)Cc2ccccn2)Oc2cc(C#CCN(C)C)ccc2S1(=O)=O | 2.4 | -0.6
C[C@H]1CCCCO[C@@H](CN(C)C(=O)c2ccccc2)[C@@H](C)CN([C@@H](C)CO)C(=O)c2cc(NS(=O)(=O)c3ccccc3)ccc2O1 | -3.2 | -3.0
Cc1noc(C)c1S(=O)(=O)N(C)C[C@H]1Oc2ccc(NS(=O)(=O)c3cccs3)cc2CC(=O)N([C@@H](C)CO)C[C@@H]1C | 26.8 | 18.0
CC(C)CC#Cc1cnc2c(c1)C(=O)N([C@H](C)CO)C[C@@H](C)[C@H](CN(C)S(C)(=O)=O)O2 | 23.6 | 12.4
C[C@@H](NC(=O)[C@H]1[C@H](CO)[C@H]2Cn3c(cccc3=O)[C@@H]1N2C(=O)C1CCCC1)c1ccccc1 | 11.7 | 3.0
COc1ccc(C(=O)N2C[C@H]3[C@@H](c4ccccc42)[C@H](CO)N3Cc2ccc(Cl)cc2)cc1 | ? | .
C[C@H]1CN([C@@H](C)CO)C(=O)c2cc(NC(=O)CCCN(C)C)ccc2O[C@H]1CN(C)S(=O)(=O)c1cn(C)cn1 | 13.4 | 1.4
CC(C)NC(=O)Nc1ccc2c(c1)C(=O)N([C@@H](C)CO)C[C@H](C)[C@@H](CN(C)Cc1ccc3c(c1)OCO3)OCCCC[C@@H](C)O2 | -0.7 | 5.4
C[C@@H]1CCCCO[C@H](CN(C)Cc2ccc(C(=O)O)cc2)[C@@H](C)CN([C@H](C)CO)C(=O)c2cc(NS(=O)(=O)c3cccs3)ccc2O1 | 19.0 | 13.5
